Assay outcomes (PubChem BioAssay)
Autofluor counter – flagged as autofluorescent in microsphere protease counterscreen; compound autofluorescence counterscreen, microsphere flow cytometry; active compounds read high; fluorescence intensity (no concentration beside the values); actives 3.1% (n = 360,000);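 active means at least 3 SD above the mean of all compounds, about 16000 in these data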;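 further: 100 nL of 1 mM stock went into each well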
An asterisk follows results filed as active. The list is partial (hit frequency here may not be typical).

SMILES	Autofluor counter
CC1C(=O)N(Cc2cn(CCC3OCCCO3)nn2)CCS(=O)(=O)N1Cc1ccc(-c2cccc(CO)c2)cc1 (stereo unspecified)	3702
O=C(Nc1ccc(F)c(Cl)c1)c1csc([C@@H]2O[C@H](CO)[C@H](O)[C@H](O)[C@H]2O)n1	3493
C[C@H](CO)N1C[C@H](C)[C@@H](CN(C)Cc2ccc3c(c2)OCCN3C)OCc2cnnn2CCCC1=O	3738
CCCCC(=O)N(C)c1c(CC)nc2c(OCC=C(C)C)cccn12	2942
COc1cccc(CNC(=O)C2(C)CCCCN2C)c1 (stereo unspecified)	2996
O=C(Nc1ccccc1Cl)c1cc(C2CCCN(C(=O)c3ccccc3)C2)on1 (stereo unspecified)	3955
Cc1cccc(C(=O)N2CCC(=O)N([C@H](COCc3cccc(Cl)c3)Cc3ccccc3)CC2)c1	5153
Cc1nn(-c2ccccc2)c(C)c1C(=O)OCC(=O)Nc1ccccc1Cl	3536
CCOc1ccc(CCN2C(=O)C(=O)N([C@@H](Cc3ccccc3)CN3CCC[C@H]3CN3C(=O)C(=O)NC[C@@H]3Cc3ccccc3)C[C@@H]2CC(C)C)cc1	4521
Fc1ccccc1-c1nc(NCC2CC2)nc2ccsc12	3996
COc1ccccc1NC(=O)N(C)C[C@H]1OCc2cn(nn2)CCCC(=O)N([C@@H](C)CO)C[C@@H]1C	3606
CCCNC(=O)C1(C)CCCN(Cc2ccc(C)cc2)C1 (stereo unspecified)	3928
COC(=O)c1ccccc1NC(=O)CSc1nc2ccsc2c(=O)n1CCCCC(=O)O	3286
CC(C)C1C(=O)N(Cc2cn(CCC3OCCO3)nn2)CCS(=O)(=O)N1Cc1ccc(-c2cccc(N(C)C)c2)cc1 (stereo unspecified)	2990
CC1(C)CN(C2CCCCC2)C(=O)[C@H]1CC(=O)Nc1ccccc1	2908
COCCNc1nc2cc(-c3ccccc3OC)sc2c(=O)n1C	2947
COc1cc(C(O)c2nc(-c3cccc(C#N)c3)cs2)ccc1F (stereo unspecified)	3768
N#CCCN(Cc1ccccc1)C(c1ccnc2ccccc12)c1nnnn1-c1ccc2c(c1)OCCO2 (stereo unspecified)	5602
COc1ccc([C@@H]2CC(=O)[C@@H]3CN(S(=O)(=O)c4ccc(C)cc4)[C@H](c4cccc(Cl)c4)C[C@@H]3N2S(=O)(=O)c2ccccc2)cc1	5698
COc1cccc(CN(C)C(=O)c2ccc(S(=O)(=O)Nc3ccccc3C)cc2)c1OC	3661
CCCCN1C(=O)C(CC(=O)NCCCCc2ccccc2)CC(C(=O)N(C)C)=C1C (stereo unspecified)	3503
COCCNC(=O)c1ccc(N2CC3CC(C2)c2cccc(=O)n2C3)c(NC(=O)c2ccccc2Br)c1 (stereo unspecified)	3826
CCOC(=O)C1CCCN(C(=O)c2ccncc2)CC1 (stereo unspecified)	4120
COc1ccc(-c2cc(C(=O)Nc3ccc(OC)c(OC)c3)[nH]n2)c(C)c1	3541
Cc1ccc(NC(=O)C2(C)CCN2C(=O)c2ccccc2CCc2ccccc2)cc1C (stereo unspecified)	4059

The results go on.
SMILES	Autofluor counter
C[C@H]1CN([C@@H](C)CO)C(=O)c2cc(-c3cccc(F)c3)cnc2O[C@@H]1CN(C)S(C)(=O)=O	3706
Cc1ccc2nc(-c3ccccc3)c(Cc3ccccc3C(F)(F)F)n2c1	6335
O=C(Nc1c(Cl)cccc1Cl)Oc1cccc2cccnc12	6029
O=C(NCc1ccc(F)cc1)c1cc(C2CCCCN2C(=O)c2ccccc2)on1 (stereo unspecified)	3839
Cc1nc(C(F)(F)F)ccc1C(=O)N1CCC1(C)C(=O)NS(=O)(=O)c1ccc2c(c1)CCO2 (stereo unspecified)	3935
Clc1ccc2c(c1)-c1ccccc1C1=NCCN12	3531
Cc1ccc2nc(N)nnc2c1	3776
CC1(C(=O)NS(=O)(=O)c2cccc(F)c2)CCN1C(=O)CCc1ccccc1 (stereo unspecified)	3839
Cc1ccc(-c2nc3ccc(Br)cn3c2CC(C)(C)C)cc1	3697
CCOC(=O)c1cccc(C2=C(CNC(=O)c3nccs3)[C@H]3CC[C@@H](C2)N3Cc2ccccc2)c1	3757
O=C(COC(=O)c1ccc(F)cc1F)Nc1ccc2c(c1)OCO2	3027
O=C(Nc1c(-c2ccc3c(c2)OCO3)[nH][nH]c1=O)c1ccc2c(c1)OCO2	5747
O=C(Nc1nnc([C@@H]2C[C@H](O)[C@@H](CO)O2)s1)c1ccccc1Cl	4150
CCc1ccc(/C=C2\SC(=S)N(CCCC(=O)N3CCCC3)C2=O)cc1	3808
O=C1NC[C@H](CCCCN2C[C@H](Cc3ccccc3)N(Cc3ccccc3)C(=O)C2=O)N(CCc2ccccc2)C1=O	6611
CC(=O)Nc1cccc(-c2csc(C(O)c3ccc(F)c(F)c3)n2)c1 (stereo unspecified)	3954
O=c1c2ccccc2[nH]c(=S)n1-c1cccc(C(F)(F)F)c1	3418
Cc1ccc(F)c(S(=O)(=O)NC(=O)C2(C)CCN2C(=O)Cc2ccccc2Cl)c1 (stereo unspecified)	3729
COc1cc(NC(=O)Nc2cccn3nc(COCCO)nc23)cc(OC)c1OC	3212
C[C@H](CO)N1C[C@H](C)[C@@H](CN(C)S(=O)(=O)c2ccc(Oc3ccccc3)nc2)OCc2cn(nn2)CCCC1=O	2802
CCCCNC(=O)C1(C)CCCCN1C(=O)c1ccc(F)c(C)c1 (stereo unspecified)	4048
CC(=O)Nc1cccc(-c2ccnc3c2CC(C)(C(=O)Nc2ccc(Cl)c(C(F)(F)F)c2)O3)c1 (stereo unspecified)	4081
CCCCN(C(=O)COC(=O)c1sccc1C)c1c(N)n(CCC)c(=O)[nH]c1=O	3503
Cc1nc(SCC(=O)N2CCCCCC2)c2c(=O)n(C)c(=O)n(CC(C)C)c2n1	5485
O=C(Nc1nnc([C@@H]2C[C@H](O)[C@@H](CO)O2)s1)Nc1ccccc1F	3879

The listing continues:
SMILES	Autofluor counter
COc1ccccc1Cc1c(-c2ccccc2)nc2ccc(Br)cn12	6079
CC(C)(C)OC(=O)C1=CC[C@@H](c2ccc(Cl)c(Cl)c2)N(S(=O)(=O)c2ccc(F)cc2)[C@H]1c1cccc(F)c1	5745
COCc1ccc(CN2CCC(n3nccc3NC(=O)c3ccc4c(c3)OCO4)CC2)o1	3482
O=C(CN1CCNCC1)N1CCOCC1	6355
CCC(c1nnnn1-c1ccc2c(c1)OCCO2)N1CCN(c2ccccc2)CC1 (stereo unspecified)	5639
COc1ccc(CNCCCn2cnc3c(SC)ncnc32)cc1	3517
COc1ccccc1C(=O)NNC(=O)CN(C)S(=O)(=O)c1ccc(Cl)cc1	3544
O=C(COC(=O)c1ccc2c(c1)OCCO2)NCc1ccc(Cl)cc1	3794
CC(C)c1ccc(CC(=O)N2CCC2(C)C(=O)NS(=O)(=O)c2ccc(F)cc2F)cc1 (stereo unspecified)	3553
OC[C@@H]1CN(Cc2ccc(F)cc2)C[C@H](n2cnc3c(NC4CCCC4)ncnc32)O1	3756
CC1(C(=O)NS(=O)(=O)C2CC2)CCCN(C(=O)c2ccc(F)cc2Cl)C1 (stereo unspecified)	3618
CCOC(=O)C1CCCN(C(=O)c2cc(-c3ccccc3)cs2)CC1 (stereo unspecified)	3006
COc1ccccc1-c1csc(Nc2ccc(Oc3ccccc3)cc2)n1	6579
Cc1noc(C)c1S(=O)(=O)NC(=O)C1(C)CCN1C(=O)Cc1ccc(-c2ccccc2)cc1 (stereo unspecified)	3375
CCCS(=O)(=O)NC(=O)C1(C)CCCN(C(=O)c2ccc3ccccc3c2)C1 (stereo unspecified)	3796
c1ccc(-c2ccc3c(c2)CNCc2cnnn2-3)cc1	4573
CC(=O)NC1(C)CCC2CC1C(C)=NC2(C)C (stereo unspecified)	5340
Clc1cccc(CNc2ccn3nc(-c4ccccc4)cc3n2)c1	3986
O=C(Nc1cccc2ccccc12)c1ccc2sc([C@H]3C[C@H](O)[C@@H](CO)O3)nc2c1	3631
COCCNC(=O)C1CCCN(C(=O)c2sc(-c3ccccc3)nc2C)CC1 (stereo unspecified)	2949
COc1ccc(OC)c(NC(=O)C2(C)CCN2Cc2cccc(OC)c2OC)c1 (stereo unspecified)	3812
CCN(CC)C(=O)C1=C(C)N(CCCN2CCCC2=O)C(=O)C(CC(=O)NCCc2ccccn2)C1 (stereo unspecified)	3014
C[C@@H]1CN([C@H](C)CO)C(=O)c2cc(C3=CCCCC3)cnc2O[C@@H]1CN(C)Cc1ccccc1C(=O)O	3326
CC1(C(=O)Nc2cnc3ccccc3c2)CCN1Cc1ccc(OC(F)(F)F)cc1 (stereo unspecified)	3536
COC(=O)c1ccccc1NN=Nc1ccccc1[N+](=O)[O-]	3583

The results go on.
SMILES	Autofluor counter
CC1=C(C(=O)N(C(C)C)C(C)C)CC(CC(=O)NCc2ccco2)C(=O)N1CCCN1CCCC1=O (stereo unspecified)	5556
Nc1nc2c(nnn2C2CC(O)C(CO)O2)c(=O)[nH]1 (stereo unspecified)	5432
C#CCN(Cc1ccco1)C(=O)c1cc(COc2cccc3cccnc23)on1	3428
O=C(C[n+]1ccc(C(=O)c2ccccc2)cc1)Nc1cccc([N+](=O)[O-])c1	5706
CC(C)S(=O)(=O)N1CCCC(c2cc(C(=O)NCc3ccccc3)no2)C1 (stereo unspecified)	3928
CC(=O)c1cccc(-c2ccc3c(c2)C(C)(Cc2ccccc2C#N)C(=O)N3)c1 (stereo unspecified)	3093
COc1cccc(CN(C)CCCn2cnc3c(OC)ncnc32)c1	3733
COc1ccc(-c2cc3nc(NCCOc4ccccc4)ccn3n2)cc1	4484
O=C(c1ccc(C(F)(F)F)cc1)N(CCCn1ccnc1)C(c1ccccn1)c1nc2ccccc2[nH]1 (stereo unspecified)	5541
CC1(C(=O)NCc2ccccc2Br)CCN1Cc1csc2ccccc12 (stereo unspecified)	3697
CCCNC(=O)C1(C)CCN(CCS(=O)(=O)c2ccc(C)cc2)C1 (stereo unspecified)	3479
CC1(C)Cc2c(cnn2-c2ccc(F)cc2)C(NC(=O)C2=CC(=O)CC(C)(C)O2)C1 (stereo unspecified)	4058
O=C1Cn2nnc(-c3ccccc3)c2C2c3ccccc3CCN12 (stereo unspecified)	4227
CCc1cnc(Nc2nc(C(N)Cc3ccc(Cl)cc3)cs2)nc1 (stereo unspecified)	3899
CC(C)N(C)c1ncnc2c1ncn2[C@H]1CN(C2CCCC2)C[C@@H](CO)O1	4081
COc1ccc(CN2CCC(C(=O)NC(c3ccc4c(c3)OCO4)c3ccccn3)CC2)cc1 (stereo unspecified)	3547
Cc1ccccc1C(=O)Nc1ccc(S(=O)(=O)NCC2CCCO2)cc1 (stereo unspecified)	3602
c1cc(-c2ccc(N3CCOCC3)cc2)n2cnnc2c1	3827
CCc1nc2c(OCC(=O)C(C)(C)C)cccn2c1N(C)C(=O)COc1ccccc1	3782
O=C(CSc1ccc(Cl)cc1)Nc1ccccc1	2862
Cc1ccc(Cl)cc1-c1cc(C(=O)Nc2ccc(F)cc2)[nH]n1	4075
COc1ncc(-c2cccc3nccn23)c(OC)n1	3915
Cc1cccc(CN(Nc2ccccc2)c2ccccc2)n1	2960
O=C(Nc1cccc(Cl)c1Cl)c1csc([C@@H]2O[C@H](CO)[C@H](O)[C@H](O)[C@H]2O)n1	4010
O=C(C1=NOC2(C1)C(=O)Nc1ccccc12)N1CCOCC1 (stereo unspecified)	6123

Ordered by number of heavy atoms (rising): 13 of the compounds above.
SMILES	Autofluor counter
O=C(CSc1ccc(Cl)cc1)Nc1ccccc1	2862
COc1ncc(-c2cccc3nccn23)c(OC)n1	3915
c1cc(-c2ccc(N3CCOCC3)cc2)n2cnnc2c1	3827
O=C(C1=NOC2(C1)C(=O)Nc1ccccc12)N1CCOCC1 (stereo unspecified)	6123
Cc1ccc(Cl)cc1-c1cc(C(=O)Nc2ccc(F)cc2)[nH]n1	4075
CCc1cnc(Nc2nc(C(N)Cc3ccc(Cl)cc3)cs2)nc1 (stereo unspecified)	3899
Cc1ccccc1C(=O)Nc1ccc(S(=O)(=O)NCC2CCCO2)cc1 (stereo unspecified)	3602
CC(C)N(C)c1ncnc2c1ncn2[C@H]1CN(C2CCCC2)C[C@@H](CO)O1	4081
CC(=O)c1cccc(-c2ccc3c(c2)C(C)(Cc2ccccc2C#N)C(=O)N3)c1 (stereo unspecified)	3093
CC1(C)Cc2c(cnn2-c2ccc(F)cc2)C(NC(=O)C2=CC(=O)CC(C)(C)O2)C1 (stereo unspecified)	4058
CCc1nc2c(OCC(=O)C(C)(C)C)cccn2c1N(C)C(=O)COc1ccccc1	3782
CC1=C(C(=O)N(C(C)C)C(C)C)CC(CC(=O)NCc2ccco2)C(=O)N1CCCN1CCCC1=O (stereo unspecified)	5556
O=C(c1ccc(C(F)(F)F)cc1)N(CCCn1ccnc1)C(c1ccccn1)c1nc2ccccc2[nH]1 (stereo unspecified)	5541

Continuation.
SMILES	Autofluor counter
Cn1nc(C(=O)OCC(=O)NCc2ccc(Cl)cc2Cl)c2ccccc2c1=O	2912
COCCCN1C(=O)C(CC(=O)NC2CCCCC2)CC(C(=O)N(C(C)C)C(C)C)=C1C (stereo unspecified)	5700
COc1cc(F)ccc1-c1csc(C(NC(C)=O)c2ccc(F)c(F)c2)n1 (stereo unspecified)	3529
CC(C)C[C@@H](COCc1ccc(F)cc1)N1CCN(C(=O)c2cccc(C(F)(F)F)c2)CCC1=O	5972
OC[C@@H]1CN(Cc2ccccc2)C[C@H](n2cnc3c(N4CCCC4)ncnc32)O1	2948
CC1(C)Oc2cc3oc(C(=O)O)cc(=O)c3cc2-c2ccccc21	2828
COc1ccc(NCC(=O)Nc2c(C)cccc2C)cc1S(=O)(=O)N1CCOCC1	3530
CC1(C(=O)NCc2ccccc2Br)CCN1Cc1c(F)cccc1F (stereo unspecified)	3510
Cc1nc(C)c(C(=O)OCC(=O)Nc2ccc(C)c(C)c2)s1	3287
CN1C(=O)N(CC(=O)Nc2ccc3c(c2)OCO3)C(=O)C12CCCCC2	3814
CCC(=O)Nc1ccc(S(=O)(=O)NC[C@H]2O[C@@H](n3cc(C)c(=O)[nH]c3=O)C[C@@H]2O)cc1	3469
Cc1cccc(C)c1-n1nnnc1C1(C)CCC(=O)N1CC1CCCCC1 (stereo unspecified)	4108
